# Bfl-1 A1 inh – inhibitors of the anti-apoptotic protein A1, read as caspase activation; MEF A1-2A-BIM cells, Caspase-Glo 3/7 luminescence, 3 h; percent of clofoctol response, vehicle zero; caspase activation, % (test concentration not listed); 330,000 tested, 0.066% active;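 active = over half of replicate activation scores above 10%, or exactly half above 10 with the replicate mean above 10; inconclusive = replicate mean below 10 yet half the replicates above 10; inactive = over half of replicates below 10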;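 note: wells of about 30 µL received 50 nL stock; many hits fall short of the cut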
# T cruzi repl – T. cruzi replication inhibition; T. cruzi beta-gal in NIH3T3, luminescence, 90 h; 300,000 tested, 1.4% active; inhibition, % (no concentration beside the values);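 active = mean inhibition across valid replicates above about 55%, limit read from the data; inconclusive = mean below that limit but half or more replicates reach it; inactive = mean below it, under half of replicates reach it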;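 note: signal also drops with host cell toxicity which is not excluded here; 0% = plate median of DMSO wells and 100% = zero luminescence signal; higher percent means less beta-gal luminescence so fewer parasites; stock transfer was 50 nL into about 50 µL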
# RanGTP-Impb inh – inhibitors of RanGTP-importin-beta interaction, primary screen, biochemical, FRET, CFP-Ran, YFP-importin-beta, homogeneous. cell-free CFP-Ran/YFP-importin-beta FRET ratio. 300,000 tested, 1.1% active. inhibition, % (no concentration beside the values). AID 2216;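 active = most replicates above 15%; inconclusive = exactly half above 15%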;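 note: 0% = DMSO wells and 100% = Ran loaded with GDP instead of GTP; wells of about 40 µL received 100 nL stock; the first replicate is given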
# LANA-H2B inh – blocks KSHV LANA binding to histone H2A/H2B; inhibition, % (concentration not given with the values); 320,000 tested, 0.6% active; AID 2629; cell-free LANA-H2A/H2B peptide, fluorescence polarization; Q9QR71; in the data active = inhibition mostly above about 10%, no sharp cut-off; inactive = mostly below about 6.7%;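 note: stock transfer was 7.5 nL into about 10 µL; 0% = median of vehicle wells and 100% = median of positive control wells; one replicate is shown; the record names a cut of 25% in any replicate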
# Target sequence (Q9QR71 whole entry, looked up): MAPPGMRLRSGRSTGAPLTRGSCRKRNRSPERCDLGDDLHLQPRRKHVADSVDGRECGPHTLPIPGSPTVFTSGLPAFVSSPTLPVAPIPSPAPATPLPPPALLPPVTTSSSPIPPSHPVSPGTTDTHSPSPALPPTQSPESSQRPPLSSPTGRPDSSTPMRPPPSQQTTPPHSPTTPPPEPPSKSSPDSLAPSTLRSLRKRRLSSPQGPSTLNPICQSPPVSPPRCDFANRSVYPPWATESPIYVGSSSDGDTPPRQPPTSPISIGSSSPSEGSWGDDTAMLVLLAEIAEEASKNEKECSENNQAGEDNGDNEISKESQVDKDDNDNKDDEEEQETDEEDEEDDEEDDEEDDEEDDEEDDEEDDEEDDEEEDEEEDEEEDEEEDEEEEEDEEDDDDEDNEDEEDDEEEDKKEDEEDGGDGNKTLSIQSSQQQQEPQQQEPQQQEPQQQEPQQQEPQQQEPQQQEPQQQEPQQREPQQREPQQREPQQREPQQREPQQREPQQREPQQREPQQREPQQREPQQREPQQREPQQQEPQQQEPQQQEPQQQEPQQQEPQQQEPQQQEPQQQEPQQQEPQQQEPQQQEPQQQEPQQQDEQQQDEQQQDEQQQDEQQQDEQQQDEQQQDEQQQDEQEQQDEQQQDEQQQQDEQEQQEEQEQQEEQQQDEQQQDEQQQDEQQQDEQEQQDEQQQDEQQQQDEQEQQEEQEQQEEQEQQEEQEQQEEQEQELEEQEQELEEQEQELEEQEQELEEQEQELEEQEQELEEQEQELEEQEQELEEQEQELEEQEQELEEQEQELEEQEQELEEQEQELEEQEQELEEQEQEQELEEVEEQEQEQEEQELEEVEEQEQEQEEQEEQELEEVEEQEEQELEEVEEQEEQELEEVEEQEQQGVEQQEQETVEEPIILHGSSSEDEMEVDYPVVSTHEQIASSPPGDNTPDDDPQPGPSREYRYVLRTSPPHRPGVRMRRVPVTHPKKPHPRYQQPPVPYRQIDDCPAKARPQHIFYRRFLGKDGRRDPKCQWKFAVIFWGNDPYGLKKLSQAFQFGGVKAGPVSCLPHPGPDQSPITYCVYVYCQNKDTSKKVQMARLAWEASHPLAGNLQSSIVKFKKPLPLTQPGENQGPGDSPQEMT
# B2AR ag – activates human beta-2 adrenergic receptor causing internalization; P07550; Am2.2-beta2AR cells, FAP receptor internalization, flow cytometry; reference of the scale not given here; response, % (test concentration not listed); 340,000 tested, 0.43% active; AID 504454;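 active = response above a set limit, near 3 SD of response in nonfluorescent compounds, cut at about 42% in these data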;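 note: stock transfer was 100 nL into about 11 µL; a reference agonist was the positive control; negative values mostly stem from fluorescent compounds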
# Beta cell apopt – beta cell apoptosis inhibition | INS-1E cytokine-induced death, ATP luminescence, 48 h; percent of positive-control rescue, neutral wells zero | protection from apoptosis, % (concentration not given with the values) | 300,000 tested, 0.8% active;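 active = all replicates at 75% or more, or half of them and the mean; inconclusive = half reach 75% but not the mean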;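 note: 0% = cytokine-treated negative control wells and 100% = positive control rescue; higher means more ATP so stronger rescue from cytokine killing; wells of about 40 µL received 100 nL stock; the first replicate is given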
# UCH37 inh – inhibitors of human deubiquitinating enzyme UCH37 | inhibition, % (concentration not given with the values) | 330,000 tested, 0.33% active | Q9Y5K5 | purified proteasome/UCH37, Ub-AMC cleavage fluorescence | AID 588478;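 active = mean of two replicates above 20%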;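 note: 0% = compound-free wells with enzyme and 100% = wells lacking proteasome; stock transfer was 100 nL into about 20 µL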
#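 Material: Human UCH37 enzyme supplied as purified proteasome complex | Schedule: 30 min compound-proteasome preincubation then 25 min substrate reaction, room temperature | Detection: AMC fluorescence from Ub-AMC cleavage, excitation 355 nm, emission 460 nm | Benchmarks: Wells without proteasome as full block, compound-free enzyme plus substrate as uninhibited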
# Calb FLC – C. albicans growth modulation with fluconazole | C. albicans CaCi-2 (fluconazole-resistant clinical isolate) + fluconazole, Alamar Blue growth, 48 h | growth inhibition, % (concentration not given with the values) | 300,000 tested, 0.57% active | AID 1979;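 active = most replicates above 75%; inconclusive = exactly half above 75%; inactive = most below 75%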;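 note: all wells also contain fluconazole at 8 µg/ml as a sub-toxic cotreatment; 0% = median of DMSO wells and 100% = median of geldanamycin control wells; wells of about 8 µL received 7.5 nL stock; the first replicate is given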
# The depositor's hits bear a star; ? = inconclusive; nt = not tested or not shown. Random draw from the library; about 4.3% have a hit in one of these screens.
# The opening two compounds, to show the layout:
SMILES,Bfl-1 A1 inh,T cruzi repl,RanGTP-Impb inh,LANA-H2B inh,B2AR ag,Beta cell apopt,UCH37 inh,Calb FLC
COc1cc(OC)cc(C2=NCCN2)c1,0.2,-3,0.6,-1.4,-1,-3,2.2,0
NC(=O)c1ccc[n+](CC(=O)NCc2ccc(Cl)cc2)c1,3.5,-15,?,2.3,-1,-2,1.9,-2

# Main list, repeating the preview:
SMILES,Bfl-1 A1 inh,T cruzi repl,RanGTP-Impb inh,LANA-H2B inh,B2AR ag,Beta cell apopt,UCH37 inh,Calb FLC
COc1cc(OC)cc(C2=NCCN2)c1,0.2,-3,0.6,-1.4,-1,-3,2.2,0
NC(=O)c1ccc[n+](CC(=O)NCc2ccc(Cl)cc2)c1,3.5,-15,?,2.3,-1,-2,1.9,-2
COc1ccc(NS(=O)(=O)c2ccc(N3CCOCC3)c(NC(=O)c3ccccc3Br)c2)cc1,0.1,21,-2.6,0.3,-2,-8,0.5,10
CCc1nnc(NC(=O)Cc2sc(C)nc2-c2ccc(C)cc2)s1,0.2,-15,0.6,-8.0,-6,-14,4.5,-14
O=C(Nc1ccccc1)c1nc2ccccc2s1,-8.3,-23,6.4,4.7,-4,-4,-0.4,-46
COc1cc(/C=C/C(=O)NCCn2c(C)cc3ccccc32)cc(OC)c1OC,0.3,34,9.8,4.9,14,3,1.0,0
O=C(Nc1cc(Cl)ccc1-n1cncn1)c1cc(S(=O)(=O)N2CCOCC2)ccc1F,0.9,9,-3.1,2.2,-9,-9,5.6,-6
O=C(COc1ccc(Cl)cc1)Nc1cccc(S(=O)(=O)NCc2ccco2)c1,1.5,nt,nt,-0.4,4,-4,2.4,nt
COc1cccc(CC(NC(C)=O)C(=O)NC2CCN(C(=O)C3CC3)CC2)c1OC (configuration not stated),-0.6,-5,?,-0.9,6,-3,2.3,-6
NC(=O)Cc1ccc2sc(-c3ccccc3)nc2c1,nt,-13,1.4,nt,-16,nt,3.4,?
O=C(COc1cc(F)ccc1[N+](=O)[O-])NCC1CCCO1 (configuration not stated),0.9,nt,nt,6.1,-10,3,1.0,nt
COc1ccc(Cl)cc1S(=O)(=O)N1CCC(C(=O)NC2CC2)CC1,0.9,3,1.1,-4.3,-2,0,-0.7,-4
O=C(Sc1ccccc1)c1cccc(Cn2cc(C(F)(F)F)ccc2=O)c1,-0.8,-24,6.9,-1.1,0,-36,6.5,-33
Cc1ccc(CNC(=O)N2CCN(c3ccc(C)cc3)CC2)cc1,0.0,-12,4.4,5.0,4,3,4.6,-1
CCOC(=O)c1c(NC(=O)CSc2nnc(C)s2)sc2c1CCC(CC)C2 (configuration not stated),-0.3,33,-3.4,-1.9,14,3,2.4,4
O=C(Nc1cc(C(F)(F)F)ccc1-n1cncn1)c1cn2ccccc2n1,0.9,nt,nt,-2.7,-17,0,-1.1,nt
Cn1cc(C(=O)N/N=C/c2cccc([N+](=O)[O-])c2)c2ccccc21,0.1,19,0.3,-1.2,2,7,nt,-3
O=C(Nc1ccc(Cl)cc1)c1ccc(-c2ccccn2)s1,-1.6,23,1.3,-2.8,18,-7,-23,-2
C=CCOc1ccc(-c2nc3c(c(=O)[nH]c(=O)n3CCC)n2CCCC)cc1,-0.9,12,-1.8,1.8,1,4,-62,6
Cc1ccc(/C(O)=C2\C(=O)C(=O)N(CC(C)O)C2c2ccccn2)cc1 (configuration not stated),0.3,-7,-1.5,-2.4,-2,3,13,8
CC(=O)c1ccc(NC(=O)CSc2nnc3ccc(-c4ccccn4)nn23)cc1,-0.2,-11,4.5,1.8,-3,-7,-7.7,4
CCOc1cc(/C=C2/SC(=S)N(Cc3ccccc3)C2=O)ccc1O,-2.2,-3,-3.8,-6.5,-293,0,4.7,16
Cc1ccc(NC(=O)CN2C(=O)COc3ccc(S(=O)(=O)N4CCOCC4)cc32)cc1N(C)C,0.1,-1,-1.6,-8.1,-3,-10,7.2,0
Cc1cc2ccccn2c1C(=O)c1nc(N2CCOCC2)ncc1Cl,0.2,10,-5.0,2.5,1,-3,4.1,-8
CC(C(=O)NNS(=O)(=O)c1cccc(C(F)(F)F)c1)n1nnc(N2CCOCC2)n1 (configuration not stated),2.1,-9,0.6,-1.5,3,nt,5.5,-3
SMILES,Bfl-1 A1 inh,T cruzi repl,RanGTP-Impb inh,LANA-H2B inh,B2AR ag,Beta cell apopt,UCH37 inh,Calb FLC
O=C(CSc1nnc(-c2ccccc2Cl)o1)Nc1ccccn1,-0.4,-2,1.4,-1.1,-6,2,1.3,-1
Cc1c(/C=C(\C#N)c2nn(-c3ccccc3)c(N)c2C#N)c2ccccc2n1Cc1ccc(F)cc1,0.2,16,0.5,2.3,-5,-1,-30,-8
CCOC(=O)c1c[nH]c(=S)n1C,-0.1,-7,2.4,-1.2,0,-8,5.3,-5
CCCN(CCC)C(=O)c1oc2ccccc2c1NC(=O)Cc1cccc(OC)c1,-0.1,10,0.6,-1.7,-1,4,0.6,4
c1ccc(-n2ncc3c(NCCN4CCCCC4)ncnc32)cc1,1.0,-1,-1.8,-2.8,2,1,0.6,3
CC(=O)NC1=NC(=O)CS1,-0.4,-22,6.9,-6.2,10,3,3.9,-18
O=C(O)CCCCCNC(=O)c1ccc(C(=O)NCCCCCC(=O)O)cc1,-0.7,0,-1.2,0.9,8,-8,-0.4,0
N#Cc1ccc(-c2ccc(F)cc2)nc1SCC(=O)Nc1sc2c(c1C#N)CCC2,0.7,11,3.2,3.4,-3,nt,-16,3
COc1cc2[nH]c(=O)n(CCC(=O)N3CCc4ccccc4C3)c(=O)c2cc1OC,0.9,-1,7.0,1.4,1,-1,-14,6
CC1CC(=O)Nc2ccccc2N1C(=O)CN1CCN(C=O)CC1 (configuration not stated),0.9,-2,0.6,-0.6,9,-4,3.6,3
COc1ccc(OC)c(/C=N/NC(=O)CSc2nnc(C)n2-c2ccccc2)c1,0.2,-4,1.9,nt,9,-24,nt,12
CCOc1ccc(NC(=O)NC(C)c2ccc3c(c2)OCO3)cc1 (configuration not stated),0.6,10,2.0,-0.6,3,-2,3.6,-26
CCN(CC)c1cc(Cl)c2nonc2c1N,0.1,1,3.4,1.8,6,-4,3.4,-2
CCOc1ccc(NC(=S)NNC(=O)CC(C)O)cc1 (configuration not stated),0.6,-19,-1.8,-5.9,-1,-9,3.9,1
O=C1c2oc3ccccc3c(=O)c2C(c2cccnc2)N1CCCN1CCOCC1 (configuration not stated),0.7,-9,0.3,-0.2,-19,-3,-3.7,-8
C=CCOc1ccc(C(=O)c2ccccc2)c(OCC(=O)NC2(C#N)CCCC2)c1,-0.8,21,-2.8,-5.7,-12,8,1.1,-2
CCCn1c(=O)c2ccccc2n2c(Sc3nnnn3-c3ccccc3)nnc12,-0.1,-3,3.2,-0.1,-10,-18,1.8,-8
COCc1cc(C)nc(N2CCc3ccccc32)c1C#N,0.3,11,-5.3,-2.2,-3,2,-15,5
CCC(=O)Nc1cccc(C2=NOC3(C2)C[C@@H](C(N)=O)N(C(=O)c2ccc(OC)cc2)C3)c1 (some centres not stated),0.9,-6,-0.9,2.8,-6,-7,-2.0,0
Cc1ccc(NC(=O)COC(=O)C(NS(=O)(=O)c2ccc(Cl)cc2)C(C)O)cc1 (configuration not stated),0.1,-12,5.4,2.4,-1,-8,-0.5,5
COc1ccc(C(=O)Nc2ccc(Oc3nc(C)nc4sc(-c5ccccc5)cc34)cc2)cc1OC,-0.4,-16,2.1,0.9,2,35,2.9,-7
Cc1cccc(Oc2ccc(NC(=O)C3=CC=CN4CCS(=O)(=O)N=C34)cc2)c1,0.0,nt,nt,1.2,0,-7,-8.5,nt
COc1ccc(OCCC(=O)OCC(=O)Nc2ccc(Br)cc2)cc1,-0.1,-24,4.3,1.0,-4,-13,2.4,10
C#CCCOC(=O)N1C2=NC(C(=O)OC)=C(C(=O)OC)[C@@H]3N(C)c4ccccc4[C@]23C[C@H]1CO,0.5,-8,-3.3,1.9,2,-4,4.1,11
O=C(Nc1cccc(-c2nnc(-c3ccccc3)o2)c1)c1ccco1,-0.7,1,2.6,7.4,-1,-1,3.2,-1
SMILES,Bfl-1 A1 inh,T cruzi repl,RanGTP-Impb inh,LANA-H2B inh,B2AR ag,Beta cell apopt,UCH37 inh,Calb FLC
CCCCN(C)C(=O)c1nc2ccccn2c1CNC1CCC1,0.2,14,-5.0,1.1,-1,-3,0.6,-9
CC1(C)Cc2ccccc2-c2nnc(-c3ccc4ccccc4n3)n21,0.0,18,-2.4,2.6,-10,3,-1.6,?
CC(NC(=O)c1ccco1)C(=O)Nc1nccs1 (configuration not stated),0.9,nt,nt,5.4,0,-5,2.3,nt
C=CCNC(=S)NNC(=O)c1ccccc1OCC,0.9,-2,-4.0,2.8,-12,-12,4.8,0
COCCCNC(=O)C1CCN(S(=O)(=O)c2c(C)noc2/C=C\c2ccc(OC)cc2)CC1,0.3,-9,5.6,0.4,4,3,-28,-9
O=C(COC(=O)Cn1cc(C(F)(F)F)ccc1=O)Nc1ccccc1,0.1,nt,nt,2.0,2,-6,4.4,nt
CCN1CCN(c2nc(-c3ccccc3Cl)nc3ccccc23)CC1,0.3,-8,1.2,1.9,-3,3,2.3,9
Cc1cc(Cl)ccc1NC(=O)CN1C(=O)CSc2ccc(S(=O)(=O)N3CCOCC3)cc21,1.5,-1,3.5,3.8,-5,2,4.5,1

# Exported tab-delimited: part of the list above.
canonical_smiles	Bfl-1 A1 inh	T cruzi repl	RanGTP-Impb inh	LANA-H2B inh	B2AR ag	Beta cell apopt	UCH37 inh	Calb FLC
Cc1cccc(Oc2ccc(NC(=O)C3=CC=CN4CCS(=O)(=O)N=C34)cc2)c1	0.0	nt	nt	1.2	0	-7	-8.5	nt
COc1ccc(OCCC(=O)OCC(=O)Nc2ccc(Br)cc2)cc1	-0.1	-24	4.3	1.0	-4	-13	2.4	10
C#CCCOC(=O)N1C2=NC(C(=O)OC)=C(C(=O)OC)[C@@H]3N(C)c4ccccc4[C@]23C[C@H]1CO	0.5	-8	-3.3	1.9	2	-4	4.1	11
O=C(Nc1cccc(-c2nnc(-c3ccccc3)o2)c1)c1ccco1	-0.7	1	2.6	7.4	-1	-1	3.2	-1
CCCCN(C)C(=O)c1nc2ccccn2c1CNC1CCC1	0.2	14	-5.0	1.1	-1	-3	0.6	-9
CC1(C)Cc2ccccc2-c2nnc(-c3ccc4ccccc4n3)n21	0.0	18	-2.4	2.6	-10	3	-1.6	?
CC(NC(=O)c1ccco1)C(=O)Nc1nccs1 (configuration not stated)	0.9	nt	nt	5.4	0	-5	2.3	nt
C=CCNC(=S)NNC(=O)c1ccccc1OCC	0.9	-2	-4.0	2.8	-12	-12	4.8	0
COCCCNC(=O)C1CCN(S(=O)(=O)c2c(C)noc2/C=C\c2ccc(OC)cc2)CC1	0.3	-9	5.6	0.4	4	3	-28	-9
O=C(COC(=O)Cn1cc(C(F)(F)F)ccc1=O)Nc1ccccc1	0.1	nt	nt	2.0	2	-6	4.4	nt
CCN1CCN(c2nc(-c3ccccc3Cl)nc3ccccc23)CC1	0.3	-8	1.2	1.9	-3	3	2.3	9
Cc1cc(Cl)ccc1NC(=O)CN1C(=O)CSc2ccc(S(=O)(=O)N3CCOCC3)cc21	1.5	-1	3.5	3.8	-5	2	4.5	1

# Compound activity as filed in PubChem.
